Sa growth inh: S. aureus growth inhibition. S. aureus RN4220 growth, OD600, 20 h, 42 °C; stronger effect = lower value. 170,000 compounds, 0.53% hits. relative growth, % (no concentration beside the values);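 active = growth at 42 °C up to 50% and 20 or more points under that at 30 °C, or under 10% at both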;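 also: 300 nL library stock went into each well; scaled to the means of positive and negative controls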
HCMV NEC inh: disrupts HCMV UL50-UL53 complex binding. 190,000 compounds, 0.15% hits. AID 1918969. inhibition, % (no concentration beside the values). HTRF UL50-UL53 interaction, normalized percent inhibition;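 active = both replicates at 50% or more, plus weaker picks with an unusually low signal ratio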;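 also: stock transfer was 100 nL into about 20 µL; 0% = negative control wells and 100% = wells with untagged competitor protein; inactives centre near -12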
GIV Gai3 FP: GIV-Galpha-i interaction inhibition | P08753 | Galpha-i3/FITC-GIV peptide fluorescence polarization, 90 min; stronger effect = lower value; scaled: aluminum fluoride 0%, vehicle 100% | percent of control (FP), % (concentration not given with the values) | 210,000 compounds, 0.42% hits | AID 1224905;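 active = replicate mean at 85% of control or lower, very high polarization wells dropped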;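 also: wells of about 15 µL received 100 nL stock; the first replicate is given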
Target sequence (P08753 whole entry, looked up): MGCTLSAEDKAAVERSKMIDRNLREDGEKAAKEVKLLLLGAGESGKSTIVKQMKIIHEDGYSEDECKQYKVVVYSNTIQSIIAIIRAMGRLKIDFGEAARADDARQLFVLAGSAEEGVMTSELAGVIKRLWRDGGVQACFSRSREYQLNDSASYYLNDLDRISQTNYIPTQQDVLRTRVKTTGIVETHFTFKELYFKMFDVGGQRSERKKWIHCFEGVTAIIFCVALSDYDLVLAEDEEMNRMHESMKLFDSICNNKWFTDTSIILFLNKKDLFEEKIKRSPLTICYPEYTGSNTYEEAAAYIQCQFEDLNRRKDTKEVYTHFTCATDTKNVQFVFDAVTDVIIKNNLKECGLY
Sa growth inh second temp: further read-out of Sa growth inh, marked with its call; relative growth, %; measured here: growth at 30 °C;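 optical density after 20 h as mean of two plates; 100% = untreated growth and lower means inhibition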
* = called active by the depositor; & = joins results of further samples. The list is partial, so the mix of outcomes need not match the whole.

`CCCC(=O)c1c(O)c2ccccc2oc1=O` gave Sa growth inh 86, GIV Gai3 FP 99 and Sa growth inh second temp 78.
`CCCc1nc(C)cc(N2CCNCC2)n1` gave HCMV NEC inh 7 and GIV Gai3 FP 103.
`COc1cccc(CN2CCN(Cc3ccccc3F)CC2)c1` gave HCMV NEC inh -2 and GIV Gai3 FP 104.
c1ccc(C2CNCCO2)cc1 (centres undefined) was read as Sa growth inh 87, HCMV NEC inh -13, GIV Gai3 FP 105 and Sa growth inh second temp 88.
O=C(CBr)c1cc(Cl)ccc1Cl was read as Sa growth inh 96, HCMV NEC inh -26 and Sa growth inh second temp 65.
`COC1CCCCC1NC1CCCC1` (centres undefined) gave Sa growth inh 98, HCMV NEC inh -22, GIV Gai3 FP 103 and Sa growth inh second temp 79.
`CCCCC1(C)N2CC3(C)CN1CC(C)(C2)C3=O` (centres undefined) gave Sa growth inh 91, HCMV NEC inh -20, GIV Gai3 FP 101 and Sa growth inh second temp 86.
For CCCCn1c(C)c(C(=O)OCC)c2cc(OC(=O)C(C)(C)C)c3ccccc3c21 the results were HCMV NEC inh 17 and GIV Gai3 FP 110.
`CC1(C)C(C(=O)N2CCN(c3ccc(Cl)cc3)CC2)C1(C)C` gave Sa growth inh 85, GIV Gai3 FP 103 and Sa growth inh second temp 82.
`O=C(c1ccccc1)c1cc(Br)ccc1NC(=O)c1sc2ccccc2c1Cl` gave HCMV NEC inh -8 and GIV Gai3 FP 113.
For CCOC(=O)CC1=C(C(=O)OCC)C2(C(=O)N(CC(N)=O)c3ccccc32)C(C(=O)OCC)=C(N)O1 (centres undefined) the results were Sa growth inh 90, HCMV NEC inh -2, GIV Gai3 FP 110 and Sa growth inh second temp 87.
Screening OCCP(c1ccccc1)c1ccccc1 returned Sa growth inh 113, HCMV NEC inh -11, GIV Gai3 FP 98 and Sa growth inh second temp 90.
Screening Cc1nn(-c2ccccc2)c2c1C(c1ccc(Br)cc1)SCC(=O)N2 (centres undefined) returned HCMV NEC inh -12 and GIV Gai3 FP 102.
For CCCN1CCC[C@H](c2cccc(O)c2)C1 the results were HCMV NEC inh -9 and GIV Gai3 FP 106.
O=C1NC(=O)C(=Cc2cccc(OCCOc3ccc([N+](=O)[O-])cc3)c2)C(=O)N1 was read as HCMV NEC inh 37* and GIV Gai3 FP 112.
For CN(C)P(=O)(OCC(F)(F)F)N(C)C the results were Sa growth inh 98, HCMV NEC inh -3, GIV Gai3 FP 98 and Sa growth inh second temp 100.
For C1CCN2CC3C(CC2C1)CN1CCCCC31 (centres undefined) the results were Sa growth inh 83, HCMV NEC inh -27, GIV Gai3 FP 106 and Sa growth inh second temp 83.
For CCCS(=O)(=O)N1CCC(C(=O)N2CCC3(CC2)OCCO3)CC1 the results were Sa growth inh 115, GIV Gai3 FP 98 and Sa growth inh second temp 76.
Screening Cc1nc2ccccc2c(=O)n1-c1ccc(OC(F)F)cc1 returned Sa growth inh 95, HCMV NEC inh -13 and Sa growth inh second temp 97.
For NCCc1ccco1 the results were Sa growth inh 77, HCMV NEC inh -5 and Sa growth inh second temp 91.
Screening CCOc1cc2c(cc1OCC)-n1cccc1C(c1cccc(F)c1F)NC2 (centres undefined) returned Sa growth inh 104, HCMV NEC inh -10 and Sa growth inh second temp 72.
COc1ccc(-c2cn3c(n2)sc2cc(C(=O)N4CCC5(CC4)OCCO5)ccc23)cc1 was read as Sa growth inh 86, HCMV NEC inh -22, GIV Gai3 FP 96 and Sa growth inh second temp 54.
Screening Oc1ccc2c3c1O[C@H]1c4[nH]c5ccccc5c4C[C@@]4(O)C(C2)N(CC2CC2)CC[C@]314 returned Sa growth inh 95, HCMV NEC inh -16 and Sa growth inh second temp 86.
Screening C[C@@H]1O[C@@H](O[C@H]2C[C@@H](O)[C@]3(CO)[C@@H]4C(CC[C@]3(O)C2)[C@@]2(O)CC[C@H](C3COC(=O)C3)[C@@]2(C)C[C@H]4O)[C@H](O)[C@H](O)[C@H]1O (some centres undefined) returned HCMV NEC inh -20 and GIV Gai3 FP 106.
For CCCC(=O)c1c(O)[nH]c(=O)[nH]c1=O the results were Sa growth inh 86, HCMV NEC inh -18 and Sa growth inh second temp 84.
For CC(=O)[C@H]1CC[C@H]2[C@@H]3CC[C@H]4C[C@H](O)CC[C@]4(C)[C@H]3C(=O)C[C@]12C the results were HCMV NEC inh -28&-22 and GIV Gai3 FP 98.
For CCc1ccc(-n2c(N3CCCC3)nc3ccccc3c2=O)cc1 the results were Sa growth inh 86, HCMV NEC inh 2, GIV Gai3 FP 100 and Sa growth inh second temp 87.
CN(N)P(=O)(c1ccccc1)c1ccccc1 was read as Sa growth inh 85, HCMV NEC inh 5 and Sa growth inh second temp 89.
Cc1nn(C)c(C)c1P(=S)(c1c(C)nn(C)c1C)N(C)C was read as Sa growth inh 97, HCMV NEC inh -16 and Sa growth inh second temp 83.
Screening CCN1C[C@]2(COC)CC[C@H](OC)C34C5CC6[C@H](O)C5[C@](O)(C[C@@H]6OC)C(CC32)C14 (some centres undefined) returned Sa growth inh 98, HCMV NEC inh -12, GIV Gai3 FP 107 and Sa growth inh second temp 93.

Arranged by number of heavy atoms (lowest first): some entries from above
For CCCC(=O)c1c(O)[nH]c(=O)[nH]c1=O the results were Sa growth inh 86, HCMV NEC inh -18 and Sa growth inh second temp 84.
CN(N)P(=O)(c1ccccc1)c1ccccc1 was read as Sa growth inh 85, HCMV NEC inh 5 and Sa growth inh second temp 89.
For CCc1ccc(-n2c(N3CCCC3)nc3ccccc3c2=O)cc1 the results were Sa growth inh 86, HCMV NEC inh 2, GIV Gai3 FP 100 and Sa growth inh second temp 87.
Screening CCOc1cc2c(cc1OCC)-n1cccc1C(c1cccc(F)c1F)NC2 (centres undefined) returned Sa growth inh 104, HCMV NEC inh -10 and Sa growth inh second temp 72.
Screening CCN1C[C@]2(COC)CC[C@H](OC)C34C5CC6[C@H](O)C5[C@](O)(C[C@@H]6OC)C(CC32)C14 (some centres undefined) returned Sa growth inh 98, HCMV NEC inh -12, GIV Gai3 FP 107 and Sa growth inh second temp 93.
COc1ccc(-c2cn3c(n2)sc2cc(C(=O)N4CCC5(CC4)OCCO5)ccc23)cc1 was read as Sa growth inh 86, HCMV NEC inh -22, GIV Gai3 FP 96 and Sa growth inh second temp 54.

Next part.
CCOC(=O)c1c(C)n(Cc2ccccc2)c2ccc(OCC(O)CNCCO)cc12 (centres undefined) was read as HCMV NEC inh -2 and GIV Gai3 FP 105.
`Cc1ccc(OCC(=O)N2CCN(CCc3ccncc3)CC2)cc1` gave Sa growth inh 111, HCMV NEC inh -15&-14, GIV Gai3 FP 101&103 and Sa growth inh second temp 97.
For CCN(CC)C(=O)COc1ccc(C2C(C#N)=C(N)Oc3c2c(=O)oc2ccccc32)cc1OC (centres undefined) the results were HCMV NEC inh -10 and GIV Gai3 FP 99.
Screening C(#CC1(N2CCOCC2)CCCCC1)c1ccccc1 returned Sa growth inh 100, HCMV NEC inh -12, GIV Gai3 FP 95 and Sa growth inh second temp 81.
Screening CCOC(=O)c1sc2nc3c(cc2c1N)CN(C)CC3 returned Sa growth inh 103, HCMV NEC inh -99&-93, GIV Gai3 FP 121&102 and Sa growth inh second temp 90.
For CCn1c(C)c(C(=O)O)c2cc(OC)ccc21 the results were Sa growth inh 87, HCMV NEC inh -30, GIV Gai3 FP 99 and Sa growth inh second temp 76.
For CC1CN2CCC3=C(CCCC3)C2(C)C1 (centres undefined) the results were Sa growth inh 106, HCMV NEC inh -18, GIV Gai3 FP 96 and Sa growth inh second temp 89.
CC1CN=C(Nc2ccc(F)cc2F)S1 (centres undefined) was read as Sa growth inh 123, HCMV NEC inh 2, GIV Gai3 FP 107 and Sa growth inh second temp 97.
For N#Cc1cc2c(nc1SCC(=O)Nc1ccc(C(F)(F)F)cc1)C1CCN2CC1 the results were Sa growth inh 60, HCMV NEC inh -5, GIV Gai3 FP 105 and Sa growth inh second temp 19.
Screening CC(C)c1cccc(C(C)C)c1OCCNCCO returned Sa growth inh 108, HCMV NEC inh 2, GIV Gai3 FP 104 and Sa growth inh second temp 81.
`CN1/C(=C\P(=S)(N2CCOCC2)N2CCOCC2)C(C)(C)c2ccccc21` gave Sa growth inh 99, HCMV NEC inh -19 and Sa growth inh second temp 94.
Cc1cc(COC(=O)c2cn(C)c3ccccc23)no1 was read as Sa growth inh 96, HCMV NEC inh -25 and Sa growth inh second temp 91.
Cc1c(N=Nc2c(O)[nH]c(=S)[nH]c2=O)c(=O)n(-c2ccccc2)n1C was read as Sa growth inh 86, HCMV NEC inh -40 and Sa growth inh second temp 85.
`CC(C)Sc1nnc(OC(=O)N(C)C)n1-c1cccc(C(F)(F)F)c1` gave Sa growth inh 83, HCMV NEC inh -6, GIV Gai3 FP 110 and Sa growth inh second temp 96.
Screening O=C(Cn1ncc2c1-c1ccccc1OC2)N1CCC2(CC1)OCCO2 returned Sa growth inh 103, HCMV NEC inh 1, GIV Gai3 FP 98 and Sa growth inh second temp 93.
Screening Cc1ccccc1NC(=O)N1Cc2ccccc2-n2cccc2C1c1ccc(Cl)cc1 (centres undefined) returned HCMV NEC inh -21 and GIV Gai3 FP 102.
`COc1ccc(Br)cc1/C=C1\C(=O)NC(=O)N(CCC2=CCCCC2)C1=O` gave Sa growth inh 103, HCMV NEC inh 6 and Sa growth inh second temp 89.
`COc1ccccc1N1CCN(CCCCNC(=O)c2ccco2)CC1` gave Sa growth inh 100, HCMV NEC inh -20, GIV Gai3 FP 104 and Sa growth inh second temp 94.
`Cc1ccc(-n2c(O)c(C=NCCC3=CCCCC3)c(=O)[nH]c2=O)cc1` gave Sa growth inh 89, HCMV NEC inh 2 and Sa growth inh second temp 94.
Cc1ccccc1NC1=NCC(C)(C)S1 was read as Sa growth inh 94, HCMV NEC inh 4, GIV Gai3 FP 113 and Sa growth inh second temp 91.
For COc1cc2c(C(=O)O)c(C)n(C)c2cc1Br the results were Sa growth inh 99, HCMV NEC inh -4 and Sa growth inh second temp 98.
For Cc1c(C(=O)Nc2ccccc2)cc(-c2ccccc2)n1CCCN1CCOCC1 the results were Sa growth inh 95, HCMV NEC inh -22, GIV Gai3 FP 108 and Sa growth inh second temp 89.
`Cn1c(=O)c2ncnnc2n(C)c1=O` gave Sa growth inh 5.9*, HCMV NEC inh 12, GIV Gai3 FP 77* and Sa growth inh second temp 4.8*.
O=C1NC(=O)N(c2ccc(Cl)cc2)C(=O)/C1=C/c1ccc(Br)o1 was read as HCMV NEC inh 11 and GIV Gai3 FP 165.
O=C1CSC(c2ccc3c(c2)OCO3)c2c(-c3ccccc3)nn(-c3ccccc3)c2N1 (centres undefined) was read as HCMV NEC inh 1 and GIV Gai3 FP 102.
For CCCn1ccc(C(=O)O)n1 the results were Sa growth inh 91, HCMV NEC inh -12, GIV Gai3 FP 100 and Sa growth inh second temp 83.
`O=C(COc1ccc(Cl)cc1)Nc1ccc(Cl)cc1C(=O)c1ccccc1` gave Sa growth inh 105, HCMV NEC inh -50, GIV Gai3 FP 108 and Sa growth inh second temp 95.
O=C(NCc1ccco1)N(Cc1ccc2c(c1)OCO2)C1CCN(Cc2ccccc2)CC1 was read as Sa growth inh 97, HCMV NEC inh -17, GIV Gai3 FP 99 and Sa growth inh second temp 86.
For O=C(c1ccccc1)C1CN2CCC1CC2 (centres undefined) the results were Sa growth inh 132, HCMV NEC inh -8&-13, GIV Gai3 FP 96 and Sa growth inh second temp 94.
`Cc1cc(C)n(C(=O)CN2C(=O)CN=C(c3ccccc3)c3cc(Br)ccc32)n1` gave Sa growth inh 103, HCMV NEC inh 2, GIV Gai3 FP 106 and Sa growth inh second temp 92.
For CCC(C)C12CN3CCN(CC(C)(C3)C1=O)C2 (centres undefined) the results were Sa growth inh 110, HCMV NEC inh 18, GIV Gai3 FP 104 and Sa growth inh second temp 97.
Screening C=C(C)Cc1c(C)nc(SCC(=O)c2ccc(Cl)cc2)nc1OC(=O)N(C)C returned Sa growth inh 68, HCMV NEC inh -8, GIV Gai3 FP 104 and Sa growth inh second temp 56.
`COc1ccccc1CN1CCN(Cc2ccccc2)CC1` gave Sa growth inh 113, GIV Gai3 FP 100 and Sa growth inh second temp 89.
Screening O=C(O)c1[nH]c2ccc(Cl)cc2c1CC(=O)N1CCN(Cc2ccccc2)CC1 returned Sa growth inh 98, HCMV NEC inh 10, GIV Gai3 FP 110 and Sa growth inh second temp 96.
For CC(C)[C@@]1(NC(=O)[C@@H]2C[C@@H]3c4cccc5[nH]cc(c45)C[C@H]3N(C)C2)O[C@@]2(O)[C@@H]3CCCN3C(=O)[C@H](Cc3ccccc3)N2C1=O the results were Sa growth inh 87, HCMV NEC inh -35&3&-16, GIV Gai3 FP 97 and Sa growth inh second temp 82.
Screening N#CC(C#N)=C(N)/C(C#N)=C/c1c[nH]c2ccccc12 returned Sa growth inh 119, HCMV NEC inh -28 and Sa growth inh second temp 95.
`COc1cccc(CN2CCN(C(C)C)CC2)c1` gave Sa growth inh 115, HCMV NEC inh 0 and Sa growth inh second temp 90.
For Cc1nc2ccccc2c(=O)n1-c1ccc(N)cc1 the results were Sa growth inh 103, HCMV NEC inh -6, GIV Gai3 FP 107 and Sa growth inh second temp 95.
Screening C=CCN1C(=O)NC(=O)/C(=C/c2ccc(OCC(=O)O)c(OCC)c2)C1=O returned Sa growth inh 85, HCMV NEC inh 4, GIV Gai3 FP 97 and Sa growth inh second temp 98.

Compound activity from PubChem.
